Screens as filed in PubChem.
KCNQ2 block = KCNQ2 potassium channel inhibitors, primary screen, cell-based, CHO-K1, FluxOR thallium flux, B-score (AID 2156); B-score at 10 µM; 20 min; stronger effect = lower value; only compounds with negative scores are shown here; some inactives read as strong as hits; 1.1% of 310,000 active;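 active = fluorescence ratio B-score at most minus 3 library SDs, with starting brightness B-score within 2 library SDs, cut at about -5.5 in these data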
Target sequence (O88943 whole entry, looked up): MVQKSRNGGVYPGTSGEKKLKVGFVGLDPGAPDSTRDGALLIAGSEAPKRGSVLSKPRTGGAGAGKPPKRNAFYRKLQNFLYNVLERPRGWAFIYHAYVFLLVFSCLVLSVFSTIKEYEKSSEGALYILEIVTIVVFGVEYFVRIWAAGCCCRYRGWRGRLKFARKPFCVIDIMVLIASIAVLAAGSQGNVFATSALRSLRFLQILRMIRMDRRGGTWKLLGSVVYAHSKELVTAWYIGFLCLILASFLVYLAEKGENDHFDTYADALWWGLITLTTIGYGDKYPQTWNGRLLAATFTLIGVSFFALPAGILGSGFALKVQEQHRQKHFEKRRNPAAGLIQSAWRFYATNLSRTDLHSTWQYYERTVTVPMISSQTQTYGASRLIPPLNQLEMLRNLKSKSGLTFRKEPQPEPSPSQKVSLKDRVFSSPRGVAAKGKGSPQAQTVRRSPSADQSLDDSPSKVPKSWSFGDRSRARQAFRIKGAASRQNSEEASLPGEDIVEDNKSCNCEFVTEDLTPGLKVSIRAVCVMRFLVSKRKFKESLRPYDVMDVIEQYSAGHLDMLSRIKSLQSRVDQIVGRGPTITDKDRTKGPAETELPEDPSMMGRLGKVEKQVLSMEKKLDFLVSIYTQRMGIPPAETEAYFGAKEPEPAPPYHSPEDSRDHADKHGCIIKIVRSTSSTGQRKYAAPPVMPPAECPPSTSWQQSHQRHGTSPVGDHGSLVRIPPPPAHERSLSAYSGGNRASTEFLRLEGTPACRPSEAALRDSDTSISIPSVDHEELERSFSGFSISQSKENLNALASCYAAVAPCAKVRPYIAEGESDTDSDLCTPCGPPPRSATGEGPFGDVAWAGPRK
KCNQ2 block baseline = recorded beside KCNQ2 block, whose call it bears; B-score; measured here: initial fluorescence intensity artifact check;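 brightness before thallium and not channel activity; 0 = typical well and far values either way flag optical interference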
* = called active by the depositor; i = inactive.

Values run as follows: KCNQ2 block	KCNQ2 block baseline
1: CCOC(=O)c1c(C=O)c2ccccc2n1Cc1ccccc1
  i	-0.43
2: CCN(CC)CCOC(=O)c1ccc(N=Cc2c(O)[nH]c(=O)[nH]c2=O)cc1
  i	0.22
3: O=c1[nH]c(Cl)ccc1CN1CCOCC1
  i	1.9
4: C=C[C@@H]1C[C@@]1(C)[C@@H](NP(=O)(c1ccccc1)c1ccccc1)c1ccccc1
  i	-0.23
5: CCCOc1ccccc1C1SCC(=O)Nc2c1c(=O)[nH]n2C(C)CCC (stereo not given)
  i	-0.6
6: CCC12C=CCN3CCC4(c5cc(Br)c(OC)cc5N(C)C4C(O)(C(=O)OC)C1OC(C)=O)C32 (stereo not given)
  i	2.6
7: O=C(Nc1cccc2ccccc12)c1nn(C23CC4CC(CC(C4)C2)C3)cc1Br
  -8*	-0.63*
8: CCOc1cc(C=C2C(=O)NC(=O)NC2=O)cc([N+](=O)[O-])c1O
  i	1.6
9: FC(F)(F)c1ccc(CNCCc2ccc3c(c2)OCO3)cc1
  i	0.01
10: CCCCCn1c(=O)c(C(=O)Nc2ccccc2S(N)(=O)=O)c(O)c2ccccc21
  i	-1.1

Fetched by structure from above (two):
Values run as follows: KCNQ2 block	KCNQ2 block baseline
6: CCC12C=CCN3CCC4(c5cc(Br)c(OC)cc5N(C)C4C(O)(C(=O)OC)C1OC(C)=O)C32 (stereo not given)
  i	2.6
8: CCOc1cc(C=C2C(=O)NC(=O)NC2=O)cc([N+](=O)[O-])c1O
  i	1.6

New compounds follow
Values run as follows: KCNQ2 block	KCNQ2 block baseline
11: Cc1ccc2c(c1)CC1(CN2C)C(=O)NC(=O)N(c2ccc(C)c(C)c2)C1=O (stereo not given)
  i	-0.57
12: Nc1cc(N2CCNCC2)ccc1[N+](=O)[O-]
  i	-0.01
13: Cc1cccc(N2C(=O)NC(=O)/C(=C\C=C\c3ccco3)C2=O)c1
  i	0.04
14: O=c1[nH]c(=O)n(Cc2ccc(F)cc2)c(O)c1C=NCc1cccnc1
  i	0.13
15: FC(F)(F)c1ccccc1CN1CCN(Cc2ccccc2)CC1
  i	0.39
16: O=C(c1ccc(Cl)cc1)C1CCCN(Cc2cccc3ncccc23)C1 (stereo not given)
  i	-1.8
17: O=C(Nc1ccc(Cl)cc1)O/N=C(\c1ccccc1)c1ccccn1
  -7.7*	-1.8*
18: CN(C)/C=C(\C=[N+](C)C)c1[nH]ncc1[N+](=O)[O-]
  i	1.5
19: O=C(Cn1cc(C(=O)c2ccccc2F)c2ccccc21)NCc1ccco1
  i	1.4
20: COC(=O)C(O)(c1ccc(NC(=S)NC(=O)c2ccc(Cl)cc2Cl)c(C)c1)C(F)(F)F (stereo not given)
  i	-3.6
21: CCOP(=O)(OCC)Oc1cc(C)c(N(C)C)c(C)c1
  i	0.48
22: O=c1c2ccccc2[se]n1-c1ccccc1
  i	0.75
23: O=C1C2(c3ccccc3)CN3CN(C2)CC1(c1ccccc1)C3
  i	1.6
24: O=C(NC1(C(F)(F)F)Oc2ccc(Cl)cc2O1)N1CCC2(CC1)OCCO2 (stereo not given)
  i	1.5
25: O=C1NC(=S)NC(=O)C12C(c1ccccc1)NC(=S)NC2c1ccccc1 (stereo not given)
  i	-1
26: O=C(Nc1ccc(Cl)cc1)N1CC2CC(C1)c1cccc(=O)n1C2 (stereo not given)
  i	0.04
27: CC(=O)OC1(c2ccccc2)CCN(C)CC1(C)C (stereo not given)
  i	-0.3
28: O=C(c1ccccc1F)c1cn(Cc2ccccc2)c2ccccc12
  i	-1.3
29: CC(=O)N(C1=NCCCS1)c1ccccc1Cl
  i	-0.26
30: CCCCCn1c(N)c(C(=O)NCc2cccs2)c2nc3ccccc3nc21
  i	-1.4
31: N#CC1=C(N)Oc2cc(O)ccc2C1c1ccc2c(c1)OCO2 (stereo not given)
  i	-1.8
32: CSC1=NP(=S)(SC)N2CCCC2=C1C#N (stereo not given)
  i	0.32
33: Cc1ccc(C(=O)NC2CC3CCC(C2)N3)cc1 (stereo not given)
  i	1
34: COc1ccc2c(c1)c(CCN)c(C)n2Cc1ccccc1
  i	-1.4
35: COc1cc2c(cc1OC)-c1c(OC)c(OC)c(OC)c3ccnc(c13)C2=O
  i	-1.4
36: CC(=O)Cc1ccc(OC(C)C)cc1
  i	-1.4
37: COc1ccc(-[n+]2c(-c3ccccc3)cc(-c3ccccc3)cc2-c2ccccc2)cc1
  -8.4*	-0.97*
38: O=C(c1ccc2c(c1)N(Cc1ccc(F)cc1)CCS2)N1CCC2(CC1)OCCO2
  i	-0.8
39: O=C(c1csc2c1CCCCC2)N1CCC2(CC1)OCCO2
  i	2.4
40: COc1cc(/C=C2\C(=O)NC(=O)N(c3ccccc3)C2=O)cc(OC)c1OC
  i	0.76
41: Cc1ccc(S(=O)(=O)NC(Cc2cnc[nH]2)C(=O)O)cc1 (stereo not given)
  i	0.13
42: CCCNC(=O)Cn1cnc2sc(C(=O)N3CCC4(CC3)OCCO4)c(C)c2c1=O
  i	-0.07
43: COC(=O)C1=C(c2cc3ccccc3o2)C[C@@H]2CC[C@H]1N2C(=O)N1CCCCC1
  i	-0.19
44: O=C(CCCn1c(=O)[nH]c2cc(Cl)ccc2c1=O)N1CCC2(CC1)OCCO2
  i	-0.5
45: O=C(c1cccs1)c1cn(Cc2ccccc2Cl)c2ccccc12
  -7.3*	0.34*
46: CC(C)n1c(=O)c(C=Nc2cccc([N+](=O)[O-])c2)c(O)n(CCc2ccccc2)c1=O
  -6.7*	0.41*
47: CCCNC(=O)c1c(N)n(Cc2ccco2)c2nc3ccccc3nc12
  i	0.42
48: C=CCn1c(O)c(C(CC)=NCCN2CCN(C(=S)NC)CC2)c(=O)[nH]c1=O
  i	-0.05
49: CCCCn1c(=O)c(C(=O)Nc2nnc(C(C)C)s2)c(O)c2ccccc21
  i	-0.01
50: Cc1ccc(-c2cc(-c3ccccc3)cc(-c3ccccc3)[n+]2-c2ccccc2)cc1
  i	-1.4
51: CCN(CC)c1ccc(N=Cc2c(O)[nH]c(=O)[nH]c2=O)cc1
  i	1.8
52: CC(C)Cc1[nH]c(=O)c(C#N)c2c1CCC2
  i	-1.5
53: CCCCn1c(C)c(C(=O)OCC)c2c(CN3CCOCC3)c(O)ccc21
  i	-1.2
54: O=c1[nH]c(=O)n(Cc2ccco2)c(O)c1C=NCc1cccs1
  i	-1.6
55: O=S1(=O)CCN(CCc2c[nH]c3ccccc23)CC1
  i	-1
56: CCN1c2nc3ccccn3c(=O)c2CC2(C(=O)N(C)C(=O)N(C)C2=O)C1C (stereo not given)
  i	0.01
57: COc1ccc(CN2CCCC(C(=O)c3cccc(Cl)c3)C2)cc1 (stereo not given)
  i	0.11
58: CCOC(=O)C1=CC(=C2C(=O)N(CC)C(=S)N(CC)C2=O)c2ccccc2O1
  i	0.63
59: CN1C(=O)C(=Cc2ccc(OCCN(C)c3ccccn3)cc2)C(=O)N(C)C1=O
  i	0.47
60: CC1(C)NCCN2C(=O)CSC21 (stereo not given)
  i	-0.1

New compounds follow
Values run as follows: KCNQ2 block	KCNQ2 block baseline
61: O=c1c2ccccc2nc(/C=C/c2ccc(O)c(O)c2)n1-c1ccccc1
  i	3.1
62: Cc1cccc(N2C(=O)NC(=O)C3(Cc4cc(C)ccc4N(C)C3)C2=O)c1 (stereo not given)
  i	-2.2
63: CCCCn1c(O)c(C=NCCCN(CC)CC)c(=O)[nH]c1=O
  i	0.06
64: CCn1c(=O)n(CC(=O)N2CCC3(CC2)OCCO3)c(=O)c2ccccc21
  i	1
65: COc1ccc(Br)cc1CNCCc1cccc(Cl)c1
  i	0.53
66: CN1CCN(c2ccc([N+](=O)[O-])c(N3CCCCC3)c2)CC1
  i	0.02
67: Oc1cc2c(cc1CN1CCN(c3ccccc3)CC1)CCC2
  i	-2.6
68: O=C(O)CCn1cc(C=C2C(=O)NC(=S)NC2=O)c(-c2cc3ccccc3oc2=O)n1
  i	-1.6
69: O=C(c1cc([N+](=O)[O-])ccc1N1CCNCC1)N1CCOCC1
  i	0.45
70: Cc1cc(C=C2C(=O)N(C)C(=S)N(C)C2=O)c(C)n1C1CCCC1
  i	1
71: COc1ccc(C)cc1NC(=O)c1c(C)nn(Cc2ccccc2)c1Cl
  i	0.66
72: CCCn1nc2ccccc2c1P(=O)(N1CCOCC1)N1CCOCC1
  i	0.76
73: CCCOc1ccccc1NP(=O)(Oc1ccccc1)Oc1ccccc1
  i	1.2
74: O=C(CN1CCCCC1)c1cccc(Br)c1
  i	-0.22
75: CCC(=O)CC(c1ccccc1)c1c(O)c2ccccc2sc1=O (stereo not given)
  i	0.28
76: CCc1ccccc1N1C(=O)NC(=O)/C(=C\c2cc(C)n(C)c2C)C1=O
  i	2.4
77: COc1ccccc1-n1c(-c2ccccc2)nc2ccccc2c1=O
  i	-1.4
78: Cc1cccc(N2C(=O)NC(=O)/C(=C\c3cc(C)n(-c4sc5c(c4C#N)CCCC5)c3C)C2=O)c1C
  i	-0.03
79: Cc1nc2ccccc2n1C1CCN(Cc2nnnn2CCc2ccccc2)CC1
  i	1.5
80: O=c1c2ccccc2nc(CN2CCOCC2)n1-c1ccccc1F
  i	1.8
81: CC(C)NS(=O)(=O)c1ccc(OCC(=O)N2CCN(Cc3ccccc3)CC2)c(Cl)c1
  i	0.81
82: CCOP(=O)(OCC)c1cc(CC)ccc1O
  i	-2
83: COc1cccc(-n2c(/C=C/c3ccc(O)c(O)c3)nc3ccccc3c2=O)c1
  -6.9*	-0.35*
84: O=C(COc1ccc2ccccc2c1)N1CCN(Cc2ccncc2)CC1
  i	-0.57
85: CN(C)C(=O)Oc1ccc([N+](=O)[O-])cc1
  i	0.04
86: O=C(c1ccc2c(c1)N(Cc1ccccc1)CCS2)N1CCC2(CC1)OCCO2
  i	0.02
87: CSc1ccc(C(=O)C(C)(C)N2CCOCC2)cc1
  i	0.24
88: O=C(C1c2ccccc2C(=O)N2CCc3ccccc3C12)N1CCC2(CC1)OCCO2 (stereo not given)
  i	0.41
89: O=[N+]([O-])c1ccc(C2[C@H]3C(c4ccccc4)=NC4(CCCC4)N23)cc1 (stereo not given in full)
  i	-0.63
90: Cc1nc2c(c(=O)[nH]1)C(c1ccccc1Cl)c1c(c3ccccc3oc1=O)O2 (stereo not given)
  i	2.1
91: FC(F)(F)Oc1ccc(C2NCc3ccccc3-n3cccc32)cc1 (stereo not given)
  i	-1.1
92: CC(=O)N1N=C2C3CCN(CC3)C2C1c1ccccc1 (stereo not given)
  i	-0.71
93: CCOC(=O)c1[nH]ncc1CN1CCCC(C(=O)c2cccc(Cl)c2)C1 (stereo not given)
  i	1.1
94: O=C(COc1ccc2ccc(=O)oc2c1)N1CCC(C(=O)O)(c2ccccc2)CC1
  i	-0.28
95: Cc1cc(=O)oc2c(C)c(OCC(=O)N3CCC(C(=O)O)(c4ccccc4)CC3)ccc12
  i	0.13
96: CC(=O)[C@@]1(O)CC[C@H]2[C@@H]3CC=C4C[C@@H](O)CC[C@]4(C)[C@H]3CC[C@@]21C
  i	-2.3
97: CNc1cc(N2CCN(C)CC2)ccc1[N+](=O)[O-]
  i	0.16
98: CN(C)C(=O)Oc1c(Cl)cc(Cl)c2ccccc12
  i	0.95
99: COc1cc(CN2C(=O)NC(=O)C3(Cc4cc(C)ccc4N(C)C3)C2=O)cc(OC)c1 (stereo not given)
  i	-2.6
100: COc1ccc(-n2c(O)c(/C=C3\C=Nc4ccc(Br)cc43)c(=O)[nH]c2=O)cc1
  i	-0.52

Compound profiles (already shown). Values in the order: KCNQ2 block	KCNQ2 block baseline
O=C(Nc1ccc(Cl)cc1)O/N=C(\c1ccccc1)c1ccccn1 is entered as -7.7*	-1.8*
Oc1cc2c(cc1CN1CCN(c3ccccc3)CC1)CCC2 is entered as i	-2.6
CCCCn1c(O)c(C=NCCCN(CC)CC)c(=O)[nH]c1=O is entered as i	0.06
CCN(CC)CCOC(=O)c1ccc(N=Cc2c(O)[nH]c(=O)[nH]c2=O)cc1 is entered as i	0.22

(continued)
Values run as follows: KCNQ2 block	KCNQ2 block baseline
101: Cn1c(CN2CCN(C(=O)COc3ccccc3)CC2)nc2cc([N+](=O)[O-])ccc21
  i	0.59
102: CSc1ccccc1C(=O)C1CCCN(Cc2ccncc2)C1 (stereo not given)
  i	0.18
103: COCCN1C(=O)NC(=O)/C(=C\c2ccc(Br)cc2)C1=O
  i	-0.13
104: OC(c1ccc(F)cc1)(c1ccc(F)cc1)[C@@H]1CCCN1
  i	-0.46
105: CC1(C)CC(N(CCc2ccccc2)Cc2ccccc2)CCO1 (stereo not given)
  i	1.5
106: CC(=O)c1ccc2c(c1)OCO2
  i	-0.9
107: CCc1ccccc1N1C(=O)CC(=O)NC1=O
  i	-0.03
108: Oc1ccc(C[C@H]2NCCc3cc(O)c(O)cc32)cc1O
  i	-1.2
109: O=C(COc1ccccc1)N1CCN(CC2CC3C=CC2C3)CC1 (stereo not given)
  i	-0.18
110: COC(=O)C1=C(c2cc3ccccc3o2)C[C@@H]2CC[C@H]1N2C(=O)NC1CCCCC1
  i	0.33
111: Cc1nc2ccccc2c(=O)n1-c1cc(F)ccc1F
  i	3.1
112: OC1(c2ccccc2)CCNC2CCCCC21 (stereo not given)
  i	-0.6
113: O=C(Cn1c(=O)n(CC2CS2)c2ccccc21)N1CCCCCC1 (stereo not given)
  i	1.2
114: CCN1CCc2ccccc2C1
  i	-0.06
115: O=C(O)Cn1cc(/C=C2\C(=O)NC(=O)N(c3ccc(Br)cc3)C2=O)c2ccccc21
  i	1.7
116: CC(C)c1ccc(-n2c(O)c(/C=N/NC(=O)c3ccncc3)c(=O)[nH]c2=O)cc1
  i	-0.03
117: CC(=O)O[C@@]12CO[C@@H]1C[C@@H](O)[C@@]1(C)C(=O)[C@H](O)C3=C(C)[C@@H](OC(=O)[C@H](O)[C@@H](NC(=O)c4ccccc4)c4ccccc4)C[C@@](O)([C@@H](OC(=O)c4ccccc4)C12)C3(C)C (stereo not given in full)
  i	-0.46
118: COc1ccc(N2CCN(CCCN)CC2)cc1
  i	-1.4
119: O=[N+]([O-])c1ccc(N2CCCCCC2)c2ncccc12
  i	1.5

Not all compounds are listed (hit frequency here may not be typical).
